# Mtb growth: M. tuberculosis H37Rv growth inhibitors, H37Rv strain (AID 1626); M. tuberculosis H37Rv growth inhibition; higher % means a stronger effect; inhibition, % at 10 µM; hits with a dose series show IC50 in µM; 220,000 tested, 0.95% active;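 active means confirmed in a dose series; inconclusive means inhibition above 80% but not taken into the dose series; inactive means below 80% or under 30% at every dose of the series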;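 further: bacteria incubated seven days before Alamar blue readout; 0% = bacteria only wells and 100% = bacteria with antibiotic wells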
# YopH inh: YopH (Yersinia) phosphatase inhibition; AID 898; inhibition, %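 (about 10 µM by stock and volumes)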; fluorescence Ex485/Em525; 140,000 tested, 0.16% active;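 active means inhibition of 50% or more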;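 further: controls were vehicle for no effect and minimum signal wells for full effect; inactives centre near -20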
# Mtb bLac sens: beta-lactam sensitization of Mtb H37Rv; M. tuberculosis H37Rv growth with meropenem, percent inhibition; hits of this screen are not shown here; inhibition, % at 25 µM; 330,000 tested, 0.27% active; AID 434955;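 active means about 74% or more and at least 40 points above the plate without the antibiotic, then above 30% in a dose series; inconclusive means first-round hits that could not be retested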;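 further: growth measured after seven days incubation then overnight dye step; 0% = bacteria only wells and 100% = bacteria with antibiotic; twin plates without the antibiotic show which effects depend on it; some results filed as inactive read as strong as hits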
# Arbovirus inh: antivirals against arbovirus infection; 200,000 tested, 0.37% active; arbovirus infection cell-based antiviral screen; AID 1251; inhibition, % at 10 µM;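 active means inhibition from about 30%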;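 further: bluetongue infection of BSR cells; cell survival read as ATP light after 72 h; 0% = infected wells without compound and 100% = uninfected wells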
# RecA intein inh: inhibitors of M. tuberculosis RecA intein splicing; AID 2221; P9WHJ3; inhibition, %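 (about 9 µM by stock and volumes)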; 290,000 tested, 0.75% active; cell-free RecA intein splicing, fluorescence; in the data active means inhibition above about 30%; inconclusive means no clear call, values can overlap the other calls;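 further: 0% = vehicle wells and 100% = reference inhibitor control wells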
# Target sequence (P9WHJ3 whole entry, looked up): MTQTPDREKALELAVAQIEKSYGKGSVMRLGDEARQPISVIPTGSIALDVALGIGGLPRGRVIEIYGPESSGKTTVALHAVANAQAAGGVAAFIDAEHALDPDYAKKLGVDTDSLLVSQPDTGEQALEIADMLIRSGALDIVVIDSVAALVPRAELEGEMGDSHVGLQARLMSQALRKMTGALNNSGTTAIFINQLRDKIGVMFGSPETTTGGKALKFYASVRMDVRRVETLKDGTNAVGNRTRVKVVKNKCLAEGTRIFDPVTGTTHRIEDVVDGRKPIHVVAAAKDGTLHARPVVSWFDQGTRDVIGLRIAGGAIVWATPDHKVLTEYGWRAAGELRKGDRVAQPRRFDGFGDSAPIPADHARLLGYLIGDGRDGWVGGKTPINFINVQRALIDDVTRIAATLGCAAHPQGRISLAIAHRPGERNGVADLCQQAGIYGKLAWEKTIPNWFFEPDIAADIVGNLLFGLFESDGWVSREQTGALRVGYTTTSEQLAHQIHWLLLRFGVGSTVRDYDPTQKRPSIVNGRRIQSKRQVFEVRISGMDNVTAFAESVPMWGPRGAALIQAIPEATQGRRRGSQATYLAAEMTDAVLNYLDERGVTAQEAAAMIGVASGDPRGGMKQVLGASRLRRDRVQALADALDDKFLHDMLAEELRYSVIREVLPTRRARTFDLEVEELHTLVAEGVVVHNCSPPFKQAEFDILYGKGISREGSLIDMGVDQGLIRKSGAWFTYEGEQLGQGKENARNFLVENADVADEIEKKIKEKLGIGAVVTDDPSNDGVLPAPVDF
# Arbovirus inh repeat: also measured in Arbovirus inh; calls as there; inhibition, %; measured here: 10K subset replicate screen; many hits read low in the repeat;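 first of two repeat runs on a subset; 0% = infected and 100% = uninfected wells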
# The depositor's hits bear a star; ? = inconclusive; . = not tested or not shown. Some of the compounds tested, so the mix of outcomes need not match the whole.
SMILES,Mtb growth,YopH inh,Mtb bLac sens,Arbovirus inh,RecA intein inh,others
COc1cccc(CNS(=O)(=O)c2cc3c(cc2Cl)NC(=O)CO3)c1,.,.,2,.,1.1,
O=C(NCc1cccs1)C1CCCN(S(=O)(=O)c2ccc3c(c2)OCO3)C1 (stereo unspecified),-5%,-38,1,-8,-2.6,Arbovirus inh repeat=-6
Cc1ccc(N2C(S)=C(C#N)C(=O)NC23CCCCC3)cc1,-14%,-22,7,-7,-1.7,
CC1CN(C(=S)Nc2ccccc2)N(c2ccccc2)C1 (stereo unspecified),7%,.,6,8,0.5,
COC(=O)CSc1nnc(CNc2ccc(F)cc2)o1,-4%,-34,9,10,0.7,
COc1cccc(C(=O)NC(=S)Nc2ccc(N(C)C)cc2)c1,12%,-20,-1,-12,1.0,
Cc1cc(N/C=C/C(=O)c2ccc(Br)cc2)no1,0%,-15,0,-9,.,
COc1ccc(N2CCN(Cc3nc4ccsc4c(=O)[nH]3)CC2)cc1,1%,-3,-7,6,.,
COc1cc(/C(C)=N/N2CCOCC2)cc(OC)c1OC,-3%,.,1,-6,-4.2,
Cc1n[nH]c(C)c1CS(=O)(=O)c1ccccc1,12%,.,2,21,-2.9,
C=CCSc1nc2c(cnn2-c2ccc(C)c(C)c2)c(=O)[nH]1,1%,-13,-6,3,-5.2,Arbovirus inh repeat=1
COC(=O)NC1c2ccccc2Oc2ccc(C)cc21 (stereo unspecified),.,.,6,.,-1.2,
COCCNc1nc(C)cc(-c2cc(C(=O)NC3CCCC3)on2)n1,-7%,.,-4,.,-1.9,
Cc1ccc(-n2ncc3c2CC(C)(C)CC3NC(=O)c2ccc[n+]([O-])c2)cc1 (stereo unspecified),.,.,-5,.,-1.4,
Cn1cnnc1SCC(=O)Nc1ccccc1,-5%,-33,2,5,1.3,Arbovirus inh repeat=2
CCn1c(=O)c2cc(C(=O)N3CCN(C)CC3)sc2c2ccccc21,4%,-25,-1,7,0.7,
CN(Cc1c(C(=O)N2CCCCCCC2)nc2ccc(Cl)cn12)C1CCOC1 (stereo unspecified),.,.,2,.,-1.3,
CC(=O)Nc1c(C(=O)N2CCOCC2)sc2nc3c(cc12)COC(C)(C)C3,-11%,-11,1,-2,0.9,
CC(CN1CCOCC1)OC(=O)c1cccs1 (stereo unspecified),-1%,1,-18,2,-0.5,
COc1ccc(OC)c(NC(=O)C2C3CC4OC(=O)C2C4C3)c1 (stereo unspecified),-5%,-4,2,0,-1.3,
COC(=O)c1ccc(S(=O)(=O)NCc2ccc(OC)cc2)n1C,-13%,.,-4,.,1.5,
COc1ccc(N2CCN(CCNC(=O)c3c(C)cc(=O)oc3C)CC2)cc1,-13%,-22,2,-1,-2.6,
Cc1c(/C=N\NC(=O)c2cc3ccccc3o2)c2ccccc2n1C,-7%,.,3,-9,-17,
O=C(CCc1c[nH]c2ccccc12)N1CCN(S(=O)(=O)c2ccccc2)CC1,.,.,-3,.,-0.2,
CCCOC(=O)c1ccc(-c2ccc(C=O)o2)cc1,?,-26,-8,-4,0.4,
O=C(NCCN1CCCCCC1)C1CCCN1S(=O)(=O)c1cccc2nsnc12 (stereo unspecified),3%,.,-5,.,1.1,
CN(C)c1c(F)cc(C(=O)NCc2ccccc2)cc1F,-11%,.,1,.,.,
C#CC(CC)(CC)NC(=O)Nc1ccc(OCC)cc1,-3%,.,-1,4,0.4,
CC(C)(C)C1CCC(C(=O)NCC(c2cccs2)N2CCOCC2)CC1 (stereo unspecified),.,.,2,.,4.6,
Cc1cc(C)c2c(=O)[nH]n(C3CC(C)N(C)CC3C)c2n1 (stereo unspecified),-8%,-24,4,2,-3.1,
CCN(CC)C(=O)CSc1nnc([C@@H](NC(=O)OC(C)(C)C)C(C)C)o1,-6%,-8,-3,4,-3.5,
C[N+]12CCCCC1[C@@H](CO)CCC2 (stereo partly specified),8%,.,-7,.,-8.1,
CCC(=O)N1C(=O)C2(Nc3ccccc3N2)c2ccccc21,0%,.,-8,-2,-1.5,
CC(C)(C)Nc1nc(Cl)nc(NC2CCCCC2)n1,.,.,9,.,-0.2,
CC1CCN(C(=O)CSc2nc(C3CC3)nc3ccccc23)CC1,.,.,6,.,2.8,
Cc1nnc(Sc2c(N)n(C)c(=O)[nH]c2=O)s1,2%,-32,3,1,1.6,
Nc1nc2c(s1)C(=O)CC(c1ccccc1)C2 (stereo unspecified),0%,7,-12,2,-1.8,
CCOC(=O)Cn1nc(Cc2ccccc2)c2ccccc2c1=O,21%,18,5,-1,2.0,
O=C(Cn1nc(-c2ccccc2)c2ccccc2c1=O)NN1CCOCC1,13%,.,-4,.,-1.8,
Cc1ccc(CNC(=O)CCNC(=O)Cn2ccc3ccccc3c2=O)o1,1%,-31,-12,-3,-2.3,
CC1CCN(S(=O)(=O)c2ccc(S(=O)(=O)N3CCC4(CC3)OCCO4)cc2)CC1,0%,-27,0,-14,-3.4,
CC(CN1C(C)CCCC1C)OC(=O)c1cccc(Br)c1 (stereo unspecified),.,.,3,.,-0.8,
CCOC(=O)C1CCCN(C(=O)c2sc3nc(C)nc(N(CC)CC)c3c2C)C1 (stereo unspecified),-53%,-1,35,-1,-0.6,
C=CCn1c(O)c(N=NC(=O)OCC)c2ccccc21,-5%,-33,4,-3,0.1,
COc1ccccc1NC(=O)Cc1noc(CSc2nnc(N)s2)n1,5%,-15,1,-4,-0.2,
Cn1c(=O)c(=O)n(C)c2cc(S(=O)(=O)NCc3ccc(Cl)cc3)ccc21,-2%,.,2,5,0.5,
O=C(Nc1ccc(Cl)cc1C(F)(F)F)C(Sc1cccc[n+]1[O-])c1ccccc1 (stereo unspecified),5%,.,4,0,2.3,
COc1cccc(OCC(=O)NNC(=O)c2ccc3ccccc3c2)c1,.,.,-5,.,1.5,
O=C(O)CSc1cc(NS(=O)(=O)c2ccc(Br)cc2)c2ccccc2c1O,.,.,8,.,97*,
COc1ccc(-c2noc(=O)n2Cc2ccc(F)cc2Cl)cc1,.,.,-5,.,4.2,

# Compounds above that have a thiophene ring, fused or not (seven):
SMILES,Mtb growth,YopH inh,Mtb bLac sens,Arbovirus inh,RecA intein inh,others
O=C(NCc1cccs1)C1CCCN(S(=O)(=O)c2ccc3c(c2)OCO3)C1 (stereo unspecified),-5%,-38,1,-8,-2.6,Arbovirus inh repeat=-6
COc1ccc(N2CCN(Cc3nc4ccsc4c(=O)[nH]3)CC2)cc1,1%,-3,-7,6,.,
CCn1c(=O)c2cc(C(=O)N3CCN(C)CC3)sc2c2ccccc21,4%,-25,-1,7,0.7,
CC(=O)Nc1c(C(=O)N2CCOCC2)sc2nc3c(cc12)COC(C)(C)C3,-11%,-11,1,-2,0.9,
CC(CN1CCOCC1)OC(=O)c1cccs1 (stereo unspecified),-1%,1,-18,2,-0.5,
CC(C)(C)C1CCC(C(=O)NCC(c2cccs2)N2CCOCC2)CC1 (stereo unspecified),.,.,2,.,4.6,
CCOC(=O)C1CCCN(C(=O)c2sc3nc(C)nc(N(CC)CC)c3c2C)C1 (stereo unspecified),-53%,-1,35,-1,-0.6,

# Next part.
SMILES,Mtb growth,YopH inh,Mtb bLac sens,Arbovirus inh,RecA intein inh,others
COc1ccc(CCNC(=O)C2CCN(C(=O)c3ccc(OC)c(OC)c3)CC2)cc1,.,.,-1,.,0.2,
COc1ccc(CC(=O)N2N=C(C)CC2(O)C(F)(F)F)cc1 (stereo unspecified),1%,-24,-4,-8,-1.1,
CC(=O)c1c(C)n(C2CCCCC2)c2ccc(O)cc12,0%,.,-3,15,-1.3,
OCC#CCSc1nnc(-c2ccc(Br)cc2)o1,0.54µM*,-42,100,1,3.4,
O=C(NCc1ccccc1)c1cc2ccccc2o1,1%,4,8,-9,-4.1,
Cc1cc(/C=N/NC(=O)c2ccncc2)c(C)n1-c1ccccc1,?,-8,99,0,.,
S=C(NCCCN1CCOCC1)Nc1cccc(Cl)c1,6%,.,-3,4,-2.3,
O=C1NC(=Nc2cccnc2)S/C1=C/c1ccc(F)cc1,2%,.,-4,.,-0.5,
O=C(CSCc1ccccn1)Nc1ccccc1,-11%,-5,-4,0,1.1,
O=C(Nc1ccc2ccccc2c1)c1cccnc1,-2%,-17,24,0,.,Arbovirus inh repeat=2
CCCCn1c(N)c(N(CC)C(=O)c2ccc(C)cc2)c(=O)[nH]c1=O,.,.,0,.,-3.9,
O=C(C1CCCC1)N1CCN(S(=O)(=O)c2ccc(F)cc2)CC1,.,.,6,.,-2.0,
Cc1cc(C)c(COc2ccc(/C=N/n3c(C)n[nH]c3=S)cc2)c(C)c1,4%,-20,-6,-28,12,
Cc1[nH]n(-c2cccc3ccccc23)c(=O)c1/C=N/c1sc2c(c1C#N)CCC2,-11%,5,-8,-3,4.7,
Cn1c(=O)c2c(SCc3ccccc3)nc(-c3ccco3)nc2n(C)c1=O,-2%,-25,.,3,.,
COc1ccc(N=Cc2nc(-c3ccccc3)oc2OC(=O)c2ccccc2)cc1,-4%,-25,8,2,2.5,
COc1ccc(-c2cc(C(=O)NCC3CCCO3)on2)cc1OC (stereo unspecified),.,.,7,.,-3.0,
CC(=O)Nc1cccc(NS(=O)(=O)c2cc3c4c(c2)CCN4C(=O)CC3)c1,.,.,-12,.,0.0,
COc1ccc2cnnc(SCC(=O)Nc3ccc(C(C)=O)cc3)c2c1OC,3%,-21,-5,-1,-0.4,
COc1ccc(N2C(=O)CC(N3CCC(n4c(=O)[nH]c5ccccc54)CC3)C2=O)cc1 (stereo unspecified),-6%,-5,7,9,.,
COC(=O)c1cc(OC)c(OC)cc1NC(=O)C(C)Sc1ccc(C)cc1 (stereo unspecified),-7%,-3,2,-2,2.2,
Nc1nnc(CSCc2cccc(Br)c2)s1,-4%,.,2,4,-0.9,
CCCCN(CCCC)CCCNC(=O)CN1C(=O)COc2ccc(S(=O)(=O)N3CCC(C)CC3)cc21,.,.,-2,.,-0.1,
O=C(NNC(=S)NC(=O)C12CC3CC(CC(C3)C1)C2)c1ccncc1,?,-3,-7,-32,10,
COc1ccc(OC)c(N2C(=O)CC(C(C)c3ccccc3)C2=O)c1 (stereo unspecified),-2%,-34,-5,6,-0.7,
CC(C)(C)NC(=O)c1cc([N+](=O)[O-])ccc1N1CCCCC1,11%,-16,1,11,2.2,
O=C(COc1ccccc1C(=O)Nc1ccccc1)NCCc1ccccc1,1%,.,-5,2,-0.7,
CCN(CC)C(=O)CSc1ncnc2c1nnn2-c1ccc(OC)cc1,-7%,-43,0,1,7.6,
COc1ccc(OC)c(S(=O)(=O)N(C)CC(=O)N2CCCCC2)c1,.,.,-5,.,1.2,
Cc1ccccc1N(CC(=O)NCC1CCCO1)C(=O)C1(C)CC(=O)N=C2C=CC=CN21 (stereo unspecified),-4%,-28,-5,6,0.8,

# Filtered by structure, the compounds so far containing an NH in an aromatic ring
SMILES,Mtb growth,YopH inh,Mtb bLac sens,Arbovirus inh,RecA intein inh,others
COc1ccc(N2CCN(Cc3nc4ccsc4c(=O)[nH]3)CC2)cc1,1%,-3,-7,6,.,
Cc1n[nH]c(C)c1CS(=O)(=O)c1ccccc1,12%,.,2,21,-2.9,
C=CCSc1nc2c(cnn2-c2ccc(C)c(C)c2)c(=O)[nH]1,1%,-13,-6,3,-5.2,Arbovirus inh repeat=1
O=C(CCc1c[nH]c2ccccc12)N1CCN(S(=O)(=O)c2ccccc2)CC1,.,.,-3,.,-0.2,
Cc1cc(C)c2c(=O)[nH]n(C3CC(C)N(C)CC3C)c2n1 (stereo unspecified),-8%,-24,4,2,-3.1,
Cc1nnc(Sc2c(N)n(C)c(=O)[nH]c2=O)s1,2%,-32,3,1,1.6,
CCCCn1c(N)c(N(CC)C(=O)c2ccc(C)cc2)c(=O)[nH]c1=O,.,.,0,.,-3.9,
Cc1cc(C)c(COc2ccc(/C=N/n3c(C)n[nH]c3=S)cc2)c(C)c1,4%,-20,-6,-28,12,
Cc1[nH]n(-c2cccc3ccccc23)c(=O)c1/C=N/c1sc2c(c1C#N)CCC2,-11%,5,-8,-3,4.7,
COc1ccc(N2C(=O)CC(N3CCC(n4c(=O)[nH]c5ccccc54)CC3)C2=O)cc1 (stereo unspecified),-6%,-5,7,9,.,

# Other structures
SMILES,Mtb growth,YopH inh,Mtb bLac sens,Arbovirus inh,RecA intein inh,others
CCOC(=O)c1ccc(NC(=O)C(C)N2C(=O)c3ccccc3C2=O)cc1 (stereo unspecified),-5%,-54,5,9,.,Arbovirus inh repeat=0
CCCCOc1ccc(/C=N/NC(=O)C2CCCNC2=O)cc1 (stereo unspecified),-6%,.,1,.,3.2,
CN1CCN(CCOCCOc2c(Cl)cc(Cl)cc2Cl)CC1,.,.,20,.,0.7,
CSc1ccccc1NC(=O)c1cnc2scc(C)n2c1=O,4%,-5,-2,1,-0.1,Arbovirus inh repeat=3
CCCCn1c(SCC(=O)N2CCCCC2C)nc2cc(S(N)(=O)=O)ccc21 (stereo unspecified),-1%,6,2,6,1.1,
